Source: PubChem (Fisher Drug Discovery Resource Center)
NPYLR7 agonist: mosquito NPYLR7 agonism | HEK293T NPYLR7/Galpha15, GCaMP6s calcium fluorescence | activation, % at 10 µM | 0.15% of 270,000 active; in the data active means activation above about 40%;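 further: 0% = vehicle and 100% = reference agonist at the receptor; some compounds past the cut are filed as inactive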
NPYLR7 agonist max-min: second read-out of NPYLR7 agonist, no call of its own (marks repeat the call); activation, %; measured here: Max-Min RFU normalised activation; some inactives read as strong as hits;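 span of the calcium signal over five minutes; 0% = vehicle and 100% = native peptide agonist; compound fluorescence can raise it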
An asterisk follows results filed as active; & = joins results of further samples. Not all compounds are listed (hit frequency here may not be typical).

The first twelve entries, to show the layout:
Second line of a record – NPYLR7 agonist	NPYLR7 agonist max-min
Cc1cc(-n2cccn2)ccc1CN1CCN(c2cc(=O)[nH]c(N)n2)CC1
 : 3.2	1.3
O=C(Nc1nccs1)c1ccc(Nc2cccc(C(F)(F)F)c2)nc1
 : 1.3	0.6
Cc1ncccc1Oc1ccc2c(-c3ccc(F)cc3)noc2n1
 : 1.7	4.8
O=S(=O)(Nc1ccccc1OC(F)F)c1ccc(Cl)cc1F
 : 5.1	4.0
O=C(c1ccc2c(c1)OCO2)N1CCCCC1
 : -2.2	-7.5
CCOC(=O)N[C@H]1C[C@@H](C(=O)NC[C@H]2CCc3ccccc3O2)N(C)C1
 : -4.4&3.4	-7.3&1.8
CCC(C)N(Cc1ccc(OS(=O)(=O)c2ccc(NC(C)=O)cc2)cc1)C(=O)CC(C)(C)C (stereo unspecified)
 : 28.1	30.9
CN(C)CCCN(C)C(=O)c1cccc(Nc2nccc(Nc3ccc4ncsc4c3)n2)c1
 : -2.6	4.7
Cc1ccc(Nc2nc(NCc3ccccn3)nc3[nH]ncc23)cc1C
 : 1.9	1.2
Clc1ccc(C2CC(c3ccc(Br)cc3)=Nc3nnnn32)cc1 (stereo unspecified)
 : 2.1	51.6
Cn1nc(C(=O)Nc2cccnc2)ccc1=O
 : 1.9	0.4
O=C(CCC1CCCC1)N1CCN(C(=O)CN2CCc3sccc3C2c2ccc(Cl)cc2)CC1 (stereo unspecified)
 : 7.3	-0.9

Results, from the start:
Second line of a record – NPYLR7 agonist	NPYLR7 agonist max-min
Cc1cc(-n2cccn2)ccc1CN1CCN(c2cc(=O)[nH]c(N)n2)CC1
 : 3.2	1.3
O=C(Nc1nccs1)c1ccc(Nc2cccc(C(F)(F)F)c2)nc1
 : 1.3	0.6
Cc1ncccc1Oc1ccc2c(-c3ccc(F)cc3)noc2n1
 : 1.7	4.8
O=S(=O)(Nc1ccccc1OC(F)F)c1ccc(Cl)cc1F
 : 5.1	4.0
O=C(c1ccc2c(c1)OCO2)N1CCCCC1
 : -2.2	-7.5
CCOC(=O)N[C@H]1C[C@@H](C(=O)NC[C@H]2CCc3ccccc3O2)N(C)C1
 : -4.4&3.4	-7.3&1.8
CCC(C)N(Cc1ccc(OS(=O)(=O)c2ccc(NC(C)=O)cc2)cc1)C(=O)CC(C)(C)C (stereo unspecified)
 : 28.1	30.9
CN(C)CCCN(C)C(=O)c1cccc(Nc2nccc(Nc3ccc4ncsc4c3)n2)c1
 : -2.6	4.7
Cc1ccc(Nc2nc(NCc3ccccn3)nc3[nH]ncc23)cc1C
 : 1.9	1.2
Clc1ccc(C2CC(c3ccc(Br)cc3)=Nc3nnnn32)cc1 (stereo unspecified)
 : 2.1	51.6
Cn1nc(C(=O)Nc2cccnc2)ccc1=O
 : 1.9	0.4
O=C(CCC1CCCC1)N1CCN(C(=O)CN2CCc3sccc3C2c2ccc(Cl)cc2)CC1 (stereo unspecified)
 : 7.3	-0.9
COC(=O)c1c(C)[nH]c(C(=O)N2CCCC2c2ccc(OC)cc2)c1C (stereo unspecified)
 : 4.5	2.3
CC(Oc1ccc(Cl)cc1)C(=O)Nc1nc2ccc(F)cc2s1 (stereo unspecified)
 : 11.6	10.7
O=C(CCc1nc(-c2ccc(F)cc2)no1)NCC1(c2ccccc2)CC1
 : 2.1	5.5
CN(C)CC1CCN(c2ccc(NC(=O)C3CCCN3c3ncccn3)cc2)CC1 (stereo unspecified)
 : -6.3	-7.0
NC(=O)Cn1c(CO)cnc1SCc1cccc(Cl)c1
 : 10.5	6.3
CCCCC(O)CN(CCOC)Cc1c(C)nn(-c2ccccc2)c1Oc1ccc(C)cc1 (stereo unspecified)
 : -3.2	1.8
Cc1cc(C)nc(NN=CC=NNc2nc(C)cc(C)n2)n1
 : 0.4	-2.4
O=C(Nc1nc(CN2CCOCC2)cs1)c1cc2c(s1)-c1ccccc1CC2
 : 2.2	8.5
O=C(Nc1ccc(F)cc1)N1CCN(S(=O)(=O)c2ccccc2)CC1
 : 23.1	10.0
Cc1nnc2sc(/C=C/c3ccccc3)nn12
 : 1.8	-0.9
Cc1ccc(C)c(Cn2c(=O)c3c(nc4n(CCO)c(C)c(C)n34)n(C)c2=O)c1
 : -1.0	4.2
CCn1c(N)c(C(=O)NC2CCCC2)sc1=S
 : 10.3	9.6
COCCn1c(C)c(C)n2c3c(=O)n(CCN4CCCCC4)c(=O)n(C)c3nc12
 : -2.5	26.9
NC(=S)c1ccc[n+]([C@@H]2O[C@@H](COP(=O)(O)OP(=O)(O)OC[C@H]3O[C@@H](n4cnc5c(N)ncnc54)C(OP(=O)(O)O)[C@H]3O)C(O)C2O)c1 (stereo partly specified)
 : 1.4	-7.1
O=C(Nc1ccc(F)cc1)c1csc(CSc2nnc(-c3ccncc3)n2-c2cccc(C(F)(F)F)c2)n1
 : 6.1	6.0
CCCc1ccc(C(=O)N(CC2=CCCN(C)C2)C2CC2)cc1
 : 9.6	3.7
CCn1cncc1CNC(=O)c1ccc(-c2ccccc2Cl)o1
 : -5.9	-8.1
CSCc1ccc(C(=O)N2CCCC(C(=O)c3ccc4c(c3)OCO4)C2)o1 (stereo unspecified)
 : 17.4	8.3
CCc1cc(Oc2ccccc2C(C)C)nc(SCc2ccc(F)c(F)c2)n1
 : 2.3	6.1
O=C(NCc1ccc(O)c(F)c1)c1c[nH]c(=O)c(Br)c1
 : -1.7	5.6
C=CCNC(=O)CSc1nnc(-c2c[nH]c3ccccc23)n1C1CC1
 : 2.2	-4.1
CCCc1[nH]nc2c1C(c1ccco1)C(C#N)C(=N)O2 (stereo unspecified)
 : 16.3	9.7
Cn1c(C2c3[nH]c4ccccc4c3CCN2Cc2ccco2)nc2ccccc21 (stereo unspecified)
 : 13.8&5.6	12.1&1.5
CC1CCN(Cc2nc3c(c(=O)n(C)c(=O)n3C)n2Cc2ccc(Cl)c(Cl)c2)CC1
 : 6.6	2.7
COc1ccc(CN(Cc2nc3cc(C)ccc3o2)C(=O)c2ccc(-c3ccccc3)cc2)cc1
 : 19.1	22.0
O=C(NC1(C(F)(F)F)NC(=O)N(C2CCCCC2)C1=O)c1ccc(F)cc1 (stereo unspecified)
 : 0.2	0.1
C=CCN1C(=O)NC(c2cc(OC)ccc2OC)C2=C1CN(C1CC1)C2=O (stereo unspecified)
 : -4.4	6.6
CO[C@@H]1[C@@H](O[C@@H]2O[C@H](C)[C@@H](O[C@H]3C[C@@](C)(O)[C@H](O)[C@H](C)O3)[C@H](N(C)C)[C@H]2O)[C@@H](CC=O)C[C@@H](C)[C@@H](O[C@H]2CC[C@H](N(C)C)[C@@H](C)O2)/C=C/C=C/C[C@H](C)OC(=O)C[C@H]1O
 : -15.3	-25.7
NC1(CNC(=O)CC2Cc3ccccc3C2)CCCCCC1
 : 15.4	9.2
CC1CCCC(C)N1C(=O)COC(=O)C1CCC(C(C)(C)C)CC1 (stereo unspecified)
 : 6.1	5.7
O=C(NCCc1ccc2c(c1)OCO2)N1CCC(N2CCCC2)C1 (stereo unspecified)
 : 0.0	1.3
COc1cc(C=Nc2ccc3ncccc3c2)cc(OC)c1OC
 : 3.3	-0.5
COc1cccc(C(C2Sc3nc(C)nn3C2=O)N2CCCCC2)c1 (stereo unspecified)
 : 1.5	0.3
COc1ccc(C)cc1C1=CC(C)(c2cc(C)ccc2OC)Nc2nnnn21 (stereo unspecified)
 : 2.2&1.5	8.3&-0.8
COc1cc2c(cc1OC)C1N(CC2)C(=O)CCC12C(=O)CCCC2=O (stereo unspecified)
 : 4.5	1.7
Cc1ccc(S(=O)(=O)NNC(=O)c2csc(N3CCOCC3)n2)cc1C
 : -4.5	16.8
COc1cc(C)c(NC(=O)c2cccn2C)cc1OC
 : 0.7	1.4
O=C(NCCC(=O)N1CCC(CCc2ccccc2)CC1)c1ccco1
 : -11.6	-11.3
Cc1cccc2nc(CCc3ccccc3)c(NC3CCCCC3)n12
 : 0.6	4.0
O=C1N(Cc2cccc(Cl)c2)C[C@@H]2C[C@@H](/C=C/c3ccco3)N3CCC[C@@]123
 : 10.6&8.8	4.7&15.1
CCCCCCCCCCCCCCCCn1cc[n+](Cc2ccccc2)c1C
 : -10.1	-13.4
CC(=O)N1CCN(C(CNS(=O)(=O)c2ccc(Cl)cc2)c2ccccc2)CC1 (stereo unspecified)
 : 4.1&-1.3	1.2&-7.4
COc1cccc(Nc2nccc3c2cc(-c2ccccc2)n3C)c1
 : -7.8	-9.9
CCN(CC)C(=O)C1CCCN(C(=O)c2cc(COc3ccc(F)cc3Cl)on2)C1 (stereo unspecified)
 : 5.5	4.5
C=CCN1C(=O)C(Cc2ccc(C)cc2)S/C1=N/N=C\c1ccco1 (stereo unspecified)
 : -0.4	-1.1
CCOC(=O)c1cc(-c2ccc(N3CCN(C(=O)c4cnn(C)c4Cl)CC3)cc2)n(-c2ccccn2)n1
 : -6.8	-7.4
CC(C)CC(=O)Nc1nc(C(C)(C)C)cs1
 : 1.2	1.8
O=C(COC(=O)c1ccc2c(c1)C(=O)N(c1ccccc1Cl)C2=O)c1cccc([N+](=O)[O-])c1
 : -1.7	-6.0

Next part:
Molecule	NPYLR7 agonist	NPYLR7 agonist max-min
CCCn1nc(C)c(CNc2nc(-c3cccnc3)nc3c2CCNC3)c1C	-5.1	-6.4
COc1cc2c(cc1OC)C(c1ccc(F)cc1)N(C(=O)c1ccc(SC(F)(F)F)cc1)CC2 (stereo unspecified)	2.2	13.1
CCN(C1CCS(=O)(=O)C1)S(=O)(=O)c1c(C)noc1C (stereo unspecified)	1.4	1.8
COc1ccccc1-c1noc(CCC(=O)N2[C@@H]3CC[C@H]2CNC(=O)C3)n1	2.5	-1.9
C=C(C)COc1ccc(-c2nc(N)ncc2-c2ccc(OC)cc2)c(O)c1	-1.0	-3.9
O=S1(=O)C=CC(OS(=O)(=O)c2ccccc2)C1 (stereo unspecified)	-1.1	-3.4
O=C(CCn1cccn1)N1CCCC(CCc2ccccc2F)C1 (stereo unspecified)	3.3	2.8
O=C1NCCN=C1c1cc(Cl)sc1Cl	1.9	-1.5
Cc1c[nH]c(C(=O)N2CCCC3(C2)C(=O)Nc2ccccc23)c1 (stereo unspecified)	-2.1	12.9
Cc1c(C(=O)Nc2ccc3oc(=O)ccc3c2)nnn1-c1ccccc1	-2.3	-6.1
CC(C)(C)OCCN(c1ccccc1)S(=O)(=O)c1ccc(F)cc1	-0.9	-3.1
COC(=O)c1ccc(NS(=O)(=O)c2ccc(C)cc2Br)c(Cl)c1	9.7	6.3
CCc1ccc(CN(C)Cc2cnc(S(C)(=O)=O)n2CCCOC)nc1	10.4	6.9
COCC(=O)Nc1ccc(N2CCN(C(=O)c3ccc(C#N)cc3)CC2)nc1	-3.1	1.4
Cc1nc(N=Nc2c(O)[nH]c3ccc([N+](=O)[O-])cc23)c2c3c(sc2n1)CCCC3	0.9	32.7
CCOc1ncccc1CN1CCCC(C(=O)NC2CCCCC2)C1 (stereo unspecified)	-3.9	-12.3
CC(C)(C)n1cc(C#N)cc1NC(=O)C1Cc2cc(Cl)ccc2O1 (stereo unspecified)	6.1	1.3
COc1ccccc1CCNC(=O)C(C1CCCC1)N1CCN(C(=O)C2CC2)CC1 (stereo unspecified)	-10.2	-6.4
CCc1cccc2c(C(CC(=O)NCCCN3CCCCC3C)c3ccc(Cl)cc3)c[nH]c12 (stereo unspecified)	-1.9	-1.8
COc1cc(NC2CCCN(C(=O)Nc3ccccc3Cl)C2)cc(OC)c1 (stereo unspecified)	1.6	-0.3
CC#CC(=O)N1CCCC(C(=O)c2ccc3cc(OC)ccc3c2)C1 (stereo unspecified)	-3.9	-3.8
O=C(c1ccc2n[nH]nc2c1)N1CCOC(CCc2ccccc2)C1 (stereo unspecified)	-8.3	-10.2
Cc1cc(-c2nccn2CCn2ccnc2)cc(C)c1O	6.3	6.3
NC(=O)C1N=CN([C@@H]2O[C@H](CO)[C@@H](O)[C@H]2O)C1=O (stereo partly specified)	2.9	-40.2
COc1ccc(N2CCN(C(=O)COc3ccc(Cl)cc3)C(C)C2=O)cc1OC (stereo unspecified)	-8.8	-2.2
COc1ccc(NC2CCCN(C(=O)CCn3cncn3)C2)cc1 (stereo unspecified)	3.2	2.6
COC(=O)CCCCC(=O)Nc1cccc(-c2cccc(-c3ccccc3OC)n2)c1	-0.3	6.1
COc1ccc(N(C)S(=O)(=O)c2ccc(OC)c(N3CCN(S(=O)(=O)c4ccc(NC(C)=O)cc4)CC3)c2)cc1	7.8	0.6
COc1ccccc1-c1c(C(F)(F)F)oc2cc(OC(=O)C(C)C)ccc2c1=O	2.8	11.5
COc1ccc(OC)c(-c2nc3ccccn3c2NC2CCCCC2)c1	2.5	0.7
FC(F)(F)c1ccccc1NC(=S)c1cnc(N2CCCC2)s1	-2.5	-3.7
O=C(CCn1c(=O)oc2ccccc21)Nc1cc(Cl)cc2cccnc12	-2.2	-4.7
O=C(CSc1nc(=O)n(CCO)c2c1CCCC2)N1CCN(c2ccccc2)CC1	-6.1	-13.4
COc1ccc(CN(Cc2ccco2)CC(C)(C)O)cc1OC	-3.0	2.8
O=C(Cn1cnc2scc(-c3ccc(Br)cc3)c2c1=O)NCc1ccco1	0.1	22.3
CCN1CC(c2nc3ccccc3n2Cc2ccccc2)CC1=O (stereo unspecified)	-0.4	0.8
O=C(Cc1ccc(C(F)(F)F)cc1)NC1=NCCS1	-1.2	-0.6
COc1ccc(C(=O)NC(=O)CSc2cc(F)ccc2F)cc1	3.6	4.1
Fc1ccccc1CSc1nnc(C(F)(F)F)o1	27.0	19.5
